PABP FP inh: blocks human PABP binding to poly(A) RNA; P11940; fluorescence polarization; inhibition, % at 35 µM; 290,000 compounds, 1% hits;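 active = 50% or more with normal probe brightness, or confirmed in later tests; inconclusive = above 50% with abnormal brightness, or retests that disagree; inactive = below 50% or failed in later tests; about a fifth of its hits are not listed in these tables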;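 also: calls also rest on retests at 20 µM and on dose response follow-up; controls were probe without protein and protein plus probe with vehicle; some compounds called inactive have numbers as strong as hits; many hits fall short of the cut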
Rce1 inh: inhibitors of yeast Ras-converting enzyme. Q03530. yeast membranes, quenched prenylated peptide cleavage fluorescence. calls only. 290,000 compounds, 0.27% hits. AID 2563;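 active = fall in fluorescence gain of 50% or more versus controls, with final raw signal at or below 3038400; inconclusive = same 50% fall but final raw signal above 3038400; inactive = fall in fluorescence gain under 50%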;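 also: plate controls were neutral control wells for no effect and wells lacking membranes for full effect; tested at 10 µM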
Target sequence (Q03530 whole entry, looked up): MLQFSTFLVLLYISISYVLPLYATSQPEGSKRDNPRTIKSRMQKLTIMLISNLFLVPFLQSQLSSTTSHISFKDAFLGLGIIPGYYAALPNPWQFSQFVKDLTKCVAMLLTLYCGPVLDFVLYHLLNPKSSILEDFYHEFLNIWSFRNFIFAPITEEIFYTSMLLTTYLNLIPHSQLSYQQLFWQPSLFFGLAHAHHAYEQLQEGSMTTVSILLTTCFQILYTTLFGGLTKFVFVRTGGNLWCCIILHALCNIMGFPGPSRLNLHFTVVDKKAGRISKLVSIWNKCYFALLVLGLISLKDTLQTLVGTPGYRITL
CSC inhib: blocks cancer stem cells; cancer stem cell-like cells viability, luminescence; inhibition, % at 7.5 µM; 300,000 compounds, 1.1% hits; AID 2717;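 active = mean at 75% or more and at least half the replicates too; inconclusive = mean and replicates disagree; tested in HMLE shEcad cells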;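 also: 0% = median of negative and 100% = median of positive control wells; the first replicate is given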
HIV Env fusion: HIV envelope-mediated fusion inhibition; HeLa-JRFL Env/CEM21 cell fusion, luciferase; inhibition, % at 12.3 µM; 360,000 compounds, 1.1% hits;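 active = mean replicate inhibition score of at least 50 and every replicate individually at or above 50; inconclusive = only one of the two criteria met; inactive = mean below 50 and not all replicates reaching 50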;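 also: 0% = plate neutral controls and 100% = maraviroc near 300 nM; one replicate is shown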
eIF4H FP inh: inhibitors of RNA binding by human eIF4H; Q15056; eIF4H fluorescence polarization binding assay; inhibition, % at 35 µM; 290,000 compounds, 0.94% hits; AID 2012;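 active = 50% or more with normal probe brightness, or confirmed in later tests; inconclusive = above 50% with abnormal brightness, or retests that disagree; inactive = below 50% or failed in later tests; about a fifth of its hits are not listed in these tables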;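 also: calls also rest on retests at 20 µM and on dose response follow-up; 0% = protein and probe with vehicle and 100% = probe without protein; strong numbers were not always called active; many hits fall short of the cut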
Yeast UUG start: alters start codon recognition fidelity in yeast. 350,000 compounds, 0.13% hits. S. cerevisiae UUG-firefly luciferase reporter, luminescence/redox ratio. activity score, % at 18.7 µM;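 active = replicate mean at a twofold rise or more, about +100% in these data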;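 also: firefly luciferase made from a UUG start codon reports start codon fidelity; reporter light over untreated wells divided by growth signal over untreated wells; some hits fall short of that in this replicate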
MT1-MMP act inh: MT1-MMP (human) activation inhibition | P50281 | HT1080 RFP-PRO-GFP cells, GFP/RFP ratio fluorescence, overnight; percent of plate control window, DMSO zero | GFP/RFP ratio change, % at 20 µM | 360,000 compounds, 0.061% hits;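 active = GFP/RFP ratio change of at least 30% with cell ATP level not reduced by more than half and red fluorescence within 50% of control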; also: strong numbers were not always called active
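Assay system: HT1080 RFP-PRO-GFP cells | Dosing: 20 µM single dose, 1% DMSO | Incubation: Cells overnight before dosing, compound overnight, 37 °C, 5% CO2 | Evaluation: GFP/RFP fluorescence ratio | Control set: DMSO-only wells and HT1080 RFP-L50D-GFP cell wells as references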
eIF4H FP inh retest: recorded beside eIF4H FP inh, whose call it bears; inhibition, %; compound at 20 µM; confirmation average;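 mean of two retest wells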
PABP FP inh retest: recorded beside PABP FP inh, whose call it bears; inhibition, %; compound at 20 µM; confirmation repeats;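 mean of two retest wells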
MT1-MMP act inh RFP: recorded beside MT1-MMP act inh, whose call it bears; RFP signal change, %; measured here: RFP expression control read;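 0 = vehicle wells; hits needed this value within 50% of zero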
* marks the source's active call; other numbers are inactive results; i = inactive; ? = inconclusive; nt = no result given; & = joins results of further samples.

SMILES	PABP FP inh	Rce1 inh	CSC inhib	HIV Env fusion	eIF4H FP inh	Yeast UUG start	MT1-MMP act inh	MT1-MMP act inh RFP	others
CC1(C)C(=O)OC(c2cc(Br)ccc2O)C(C)(C)C1=O (stereo not given)	-8	i	-14	7	-1	-9	3	-6
CC(=O)Nc1ccc(N(C(=O)c2ccco2)C(C(=O)NC2CCCCC2)c2ccccc2)cc1 (stereo not given)	-4	i	-7	-44	-2	-7	2	5
Cc1ccccc1-c1noc(-c2ccccc2C(=O)O)n1	10	i	2	-18	1	-11	-2	-6
S=c1[nH]c2cc3c(cc2[nH]1)OCCO3	0	i	-12	-15	3	nt	-1	5
Cc1ccc(CN2CCC(CNC(=O)c3ccc(NC(=O)C4=CSCCO4)cc3)CC2)cc1	-6	i	-21	-5	2	6	2	-3
CC(=O)c1cccc(Nc2cc(C)nc3ccc(C)cc23)c1	5	i	-2	6	-14	nt	12	2
O=C(Nc1cc(C2CC2)nn1-c1ccccc1)c1ccc(F)cc1	nt	nt	nt	16	nt	-16	5	-4
COc1ccc(NC(=O)CSCCc2ccccn2)cc1OC	-5	i	-12	-14	6	-4	-2	0
COc1ccc(C)cc1NC(=O)CN1c2cccc3cccc(c23)S1(=O)=O	nt	nt	nt	4	nt	-17	8	-4
Cc1ccc(C)c(S(=O)(=O)C(C#N)c2nc3ccccc3nc2N2CCOCC2)c1 (stereo not given)	?	i	22	-23	?	-16	-2	0
OCCCNc1ncnc2c1ncn2[C@H]1CN(Cc2ccc3c(c2)OCO3)C[C@@H](CO)O1	nt	nt	nt	0	nt	-23	-1	-2
COc1ccc(CCNC(=O)Nc2ccc3c(c2)c(=O)n(C)n3C)cc1OC	nt	nt	nt	-6	nt	11	-3	9
O=c1c2ccccc2[nH]c(=S)n1Cc1ccccc1	8	i	-5	8	-4	-4	-4	-4
Cc1ccc(NC(=O)CCCCCNS(=O)(=O)c2ccc(C)cc2)cc1	-2	i	13	nt	-10	-16	0	4
CCOc1ccc(C(=O)Nc2c(C(=O)N3CCC(N4CCCCC4)CC3)oc3ccccc23)cc1	-5	i	21	-26	-13	-14	0	1
CC(=O)Nc1cccc(C(=O)/C=C/c2ccc(Br)cc2)c1	-8	i	127*	-61	1	nt	-5	-9
CCOC(=O)C1=C(C)C(c2ccccc2OC)NC(=O)N1 (stereo not given)	-6	i	30	-5	-16	-17	-1	4
CC(=O)c1cccc(NC(=O)c2cc(C)nn2-c2ccccc2)c1	10	i	-7	-8	-5	-5	3	5
Cc1ccc(NS(=O)(=O)c2cc(C(=O)N3CCOCC3)ccc2C)cc1C	-4	i	6	nt	-6	-4	-1	-2
Cc1ccc2c(c1)N(CC(=O)NC1CCCC1)C(=O)CO2	0	i	-6	-11	-7	nt	2	7
Cc1cc(NC(=O)CSc2ccc3nnc(-c4cccs4)n3n2)no1	14	i	-4	-5	1	-18	-3	0
CN(C(=O)Cn1cc([N+](=O)[O-])ccc1=O)C1CCCCC1	nt	nt	nt	6	nt	-10	4	2
CCC(CO)Oc1cc(NC(=O)c2ccc(Cl)cc2)c2ncn(C(C)C)c2c1 (stereo not given)	nt	nt	nt	-31	nt	-10&-23	-1	-1
N/C(COc1cccc(Cl)c1)=N\NS(=O)(=O)c1ccccc1	2	i	21	-60	-13	-3	6	7
COc1ccc(CN(Cc2ccccn2)C(=O)CN2C(=O)COc3ccccc32)cc1	3	i	-5	nt	-6	-9	-3	-3
(list continues)
SMILES	PABP FP inh	Rce1 inh	CSC inhib	HIV Env fusion	eIF4H FP inh	Yeast UUG start	MT1-MMP act inh	MT1-MMP act inh RFP	others
CC(C)(C)NC(=O)C(c1cccnc1)N(C(=O)c1ccc(Cl)nc1)C1CCCC1 (stereo not given)	-8	i	-8	-6	-2	-14	1	6
CCOc1cc(C2C3=C(CC(C)(C)CC3=O)OC3=C2C(=O)CC(C)(C)C3)cc([N+](=O)[O-])c1O	3	i	-9	31	-5	nt	4	5
COc1ccccc1NS(=O)(=O)c1ccc(C)c(NC(=O)C2CCCO2)c1 (stereo not given)	nt	nt	-4	-10	nt	1	-2	0
COc1ccc(CCNC(=O)COC(=O)/C=C/c2ccc(OCC#N)c(OC)c2)cc1	-2	i	-12	-7	-10	-17	0	5
CC1(C)CC(NC(=O)c2cccc(Cl)c2)CC(C)(C)N1	-14	i	-3	3	-2	3	1	1
CC(Sc1nc(N2CCOCC2)c2c(c1C#N)CC(C)(C)OC2)C(=O)O (stereo not given)	5	i	-11	3	-3	-17	-1	-1
Cc1cc(C)n2nc(-c3ccco3)nc2n1	-2	?	7	1	-6	nt	-1	-1
Cc1ccnc(NS(=O)(=O)c2ccc(NS(=O)(=O)c3ccc([N+](=O)[O-])cc3)cc2)n1	3	i	-8	-19	10	-5	1	1
O=c1c2ccccc2[nH]c(=S)n1CCN1CCc2ccccc2C1	4	i	-4	1	2	nt	-2	0
CCn1c(=O)cc(OCC(=O)NCc2cccs2)c2ccccc21	-2	i	-7	-1	-1	nt	5	6
Nc1nc(Nc2cccc(Cl)c2)nc(NCCO)c1[N+](=O)[O-]	2	i	-6	-25	-6	-9	0	-5
CCOc1ccc(N=C(NC#N)SCC(=O)NC2CC2)cc1	10	i	2	-6	7	-11	-22	9
CC(=O)c1cccc(N=Nc2c(C)[nH]c3ccccc23)c1	-7	i	15	-13	2	nt	4	4
CCOc1c(C)cnc2c1c(=O)n(CC(=O)NCC1CCCO1)c(=O)n2C (stereo not given)	nt	i	-14	-2	nt	0	0	1
CCOC(=O)c1nn(-c2ccc([N+](=O)[O-])cc2)cc1O	10	i	0	-5	-20	-21	2	1
CCn1c(=O)c2ccccc2n2c(SCC(=O)NCc3cccs3)nnc12	1	i	nt	7	-3	-15	4	3
CC(C)Oc1ccc(C(=O)NC(C)(C)CO)cc1	2	i	-18	-46	0	-22	1	3
COc1ccc(-n2c(SC(C)C(=O)Nc3ccc(NC(C)=O)cc3)nc3ccccc3c2=O)cc1OC (stereo not given)	1	i	0	3	-3	nt	3	2
COCCn1c(SC(C)C(=O)Nc2ncc(Cl)cc2Cl)nc2ccccc21 (stereo not given)	-10	i	22	nt	0	nt	5	-5
CCCN1CCN(CCCNC(=O)Cn2cc3c(n2)CCCC3)CC1	-18	i	-5	-5	-13	-12	0	9
CCN1CCn2c3c(c4cc(Br)ccc42)CCCC31 (stereo not given)	nt	i	29	nt	nt	4	1	-2
O=C(NCc1nnc(SCC(=O)N2CCOCC2)o1)c1c(F)cccc1Cl	-6	i	4	7	3	-6	3	6
COc1ccc(N2C(=O)Cc3ccccc3C2=O)cc1	3	i	1	12	-3	-5	0	1
O=C(NC1CCN(S(=O)(=O)c2cccc(F)c2)CC1)c1ccc(F)cc1	23	i	-9	-12	-5	-6	-1	-3
CC(=O)Nc1sc(N/N=C/c2ccc(C)cc2)nc1-c1ccc(C)cc1	0	i	-7	-3	0	nt	-5	-1
(next part)
SMILES	PABP FP inh	Rce1 inh	CSC inhib	HIV Env fusion	eIF4H FP inh	Yeast UUG start	MT1-MMP act inh	MT1-MMP act inh RFP	others
Cc1ccnc(SCC(=O)N2CCc3ccccc32)n1	-4	i	-15	-41	2	-6	2	1
COc1ccc(S(=O)(=O)N2CCCCC2)cc1NC(=O)Cn1cnc2c1c(=O)n(C)c(=O)n2C	nt	nt	-15	-15	nt	-24	0	3
O=c1[nH]snc1-c1c(Cl)cccc1Cl	nt	i	-10	nt	nt	18	-2	0
CC1=NN(c2ccccc2)C(c2ccco2)C1 (stereo not given)	nt	nt	nt	-7	nt	-11	-6	-2
N#Cc1nc(-c2ccco2)oc1NCc1ccc(F)cc1	-6	i	46	nt	-10	2	4	1
CCCCC(=O)N(Cc1nc2sc(C)c(C)c2c(=O)[nH]1)C1CCCC1	8	i	-8	4	13	nt	3	-3
COC(=O)/C=C/c1ccccc1CN1[C@@H](CC(=O)OC)c2ccccc2S1(=O)=O	nt	nt	0	-21	nt	0	-2	1
CCN1CCCc2cc(CN(CCN3CCOCC3)C(=S)Nc3cccc(C)c3)ccc21	-7	i	-10	18	8	3	1	4
CCc1ccc(NC(=O)CSc2nnnn2-c2cccnc2)cc1	5	i	27	15	-2	-16	0	1
CCC(C)NC(=O)CN1C(=O)NC2(CCc3ccccc3C2)C1=O (stereo not given)	-13	i	-10	-27	-2	nt	-1	4
CCOC(=O)N1CCC(Nc2c(-c3ccc(C)c(C)c3)c(=O)c2=O)CC1	-3	i	-13	?	78	-3	3	1	eIF4H FP inh retest=-4;PABP FP inh retest=5
O=C(NCCn1cccn1)C1CCC(=O)N(CC2CCCCC2)C1 (stereo not given)	-3	i	-18	7	11	-8	1	6
Cc1noc(C)c1NC(=O)N(C)C[C@@H]1Oc2ncc(Br)cc2C(=O)N([C@@H](C)CO)C[C@@H]1C	nt	nt	nt	7	nt	13&-13	1	0
O=S(=O)(Nc1ccc(F)cc1)c1ccc(NS(=O)(=O)c2cccs2)cc1	11	i	-4	9	5	-5	0	2
O=C(O)c1ccc(/C=N/N2CCN(Cc3ccc(Cl)cc3)CC2)cc1	2	nt	4	27	-2	nt	3	2
COc1cccc(C(=O)NC2CCN(C(=O)N3c4ccccc4Sc4ccccc43)CC2)c1	-2	i	36	nt	-6	-8	-1	-20
Cc1[nH]c(=O)[nH]c(=S)c1C(=O)Nc1ccc(Cl)c(Cl)c1	nt	i	8	-3	nt	-14	7	-2
COC(=O)c1cccc(NC(=O)c2ccc(OC)c(Cl)c2)c1	3	i	7	10	8	2	4	0
CN(Cc1ccccc1)S(=O)(=O)c1ccc2[nH]c(=O)ccc2c1	-11	i	10	10	-5	14	1	-2
CC(C)(C)NC(=O)CCSc1nnc(-c2ccco2)o1	15	i	6	-48	-1	13	-1	2
CC(C)C(c1nnnn1C1CCCC1)N1CCc2ccccc21 (stereo not given)	-8	i	nt	-21	5	11	-5	-3
Cc1[nH]c2ccccc2c1[C@H]1[C@@H](CC#N)C1(C)C	2	i	4	-64	-4	-20	-1	3
COC(=O)c1sc(NC(=S)NC(=O)c2ccc(F)cc2)nc1C	-3	i	-1	-5	-11	nt	nt	nt
O=C1OC(COc2ccc(Br)cc2)CN1c1ccccc1 (stereo not given)	5	i	-11	6	-5	nt	2	2
CCCCC(=O)NC(=S)Nc1ccccc1N1CCCCC1	?	i	29	-1	-6	-34	0	3
Going on with the list:
SMILES	PABP FP inh	Rce1 inh	CSC inhib	HIV Env fusion	eIF4H FP inh	Yeast UUG start	MT1-MMP act inh	MT1-MMP act inh RFP	others
COc1ccc(NC(=O)c2ccc(S(=O)(=O)N(C)c3ccccc3)cc2)cn1	-7	i	0	1	2	-13	-3	-28
N#Cc1cc2c(nc1SCC(=O)N1CCCCC1)CCCCC2	1	i	-2	-1	-2	-14	-10	-8
Cc1ccc(NCC(=O)N2CCN(S(=O)(=O)c3ccccc3)CC2)cc1F	nt	nt	nt	-25	nt	4	1	0
CCCOc1ccccc1C(=O)Nc1ccc(S(=O)(=O)N2CCN(C)CC2)cc1	-6	i	-3	-2	-10	-3	4	-2
O=[N+]([O-])c1ccc(Oc2ccc(Oc3ccc(C(F)(F)F)cn3)cc2)nc1	-6	nt	5	12	-3	nt	0	-18
COC(=O)NNS(=O)(=O)c1ccc(C)cc1	-3	i	-8	-3	0	nt	0	2
Cc1ccc2c(O)c(Cc3ccccc3)c(=O)[nH]c2n1	nt	nt	nt	-6	nt	1	1	-1
Cc1c(C)n(Cc2ccccc2)c2ncnc(NCCO)c12	-3	i	-9	-10	-12	-15	-2	-2
CCOC(=O)c1c(C)[nH]c(C(=O)NNC(=O)c2ccccc2F)c1C	nt	nt	-13	?	nt	nt	-2	4

Screens (PubChem)
